Compound activity deposited in PubChem by National Center for Advancing Translational Sciences (NCATS).
TRPML1 ag: human mucolipin-1 channel agonism; Q9GZU1; TRPML1-expressing cells, Ca2+ dye fluorescence, FDSS; host cell line not named in the record; reference of the full effect not given here; activation, % (no concentration beside the values); 410,000 compounds, 0.12% hits; in the data active = activation above about 50%; inconclusive = about 30% to 50%; inactive = below about 30%; further: 0% is about no effect; the text of the record puts the active cut at 80%
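Agonist activity was taken from a 110 s kinetic Ca2+ dye read on the FDSS after pinning compounds onto TRPML1-DL cells. The cells were seeded at 1,500/well with Tet inducer, incubated about 16 h, then dye-loaded at room temperature.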
PINK1 expr mod: changes PINK1 expression. PINK1 immunofluorescence, high-content cytometry, 24 h. Potency, µM (series often up to 76.6 µM), inactives show top-dose activation (PINK1 increase), hits mostly activators. 410,000 compounds, 0.2% hits. AID 624263; active = well fitted activation curve with a large enough effect; inconclusive = small, poorly fitted or top-dose-only effect; inactive = flat fitted curve, though single readings scatter; cell line not stated here;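 further: potency means the concentration at half of the fitted maximal effect; % of control where 0% means no effect; nearly all actives have a fitted effect of over 65% in size; a mitochondrial uncoupler was the plate control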
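Cells are seeded, rested 12 hours, then given compound at five concentrations or DMSO for 24 hours. After fixation, blocking and antibody staining, PINK1 amount and mitochondrial localization are scored; CCCP serves as control.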
TRPML1 inh: inhibitors of human TRPML1 channel | 390,000 compounds, 0.02% hits | TRPML1-inducible cells, Ca2+ dye fluorescence, FDSS; active compounds read low; inhibition of EC80 agonist-evoked calcium signal | activity change, negative = inhibition, % (concentration not given with the values) | AID 624415 | Q9GZU1; in the data active means activity change below about -50%; inconclusive means about -30% to -50%; inactive means above about -30%;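 further: stimulus is agonist 54-4 at its EC80 concentration; on the % scale 0 is the no-effect control and ±100 the full control effect; the text of the record puts the active cut at -80%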
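TRPML1-DL cells, Tet-induced overnight (~16 h, 37 °C) at 1,500 cells/well, were loaded with Ca8 no-wash dye plus quencher for 45-90 min at room temperature. Compounds were pinned during FDSS kinetic reading; agonist 54-4 at EC80 (4 uM final) then added.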
ClpP mod: qHTS Assay for Activators of ClpP; Potency, µM (titrated, usually from 57.5 µM), for the others: at the top dose activity change, negative = active; purified B. subtilis ClpP, FRET peptide cleavage, 20 min; 340,000 compounds, 1.9% hits; ATP-dependent Clp protease proteolytic subunit (Bacillus subtilis (strain 168)), P80244; active = well fitted falling curve with a large enough effect; inconclusive = small, poorly fitted or top-dose-only effect; inactive = no such curve, though single readings can be large or run the other way; further: potency means the concentration at half of the fitted maximal effect; the source files actives as falling curves though it sought activators and does not explain the sign; nearly all actives have a fitted effect of over 65% in size; many hits overshoot -100%
Target sequence (P80244 whole entry, looked up): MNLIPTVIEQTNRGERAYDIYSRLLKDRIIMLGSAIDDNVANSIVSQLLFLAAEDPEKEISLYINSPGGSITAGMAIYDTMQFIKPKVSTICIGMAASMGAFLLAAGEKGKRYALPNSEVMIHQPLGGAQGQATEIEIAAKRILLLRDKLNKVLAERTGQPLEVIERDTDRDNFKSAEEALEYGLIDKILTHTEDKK
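ClpP 10 microg/mL final, pH 8 Tris/KCl buffer with BSA, glycerol, Tween-20; compound pinned in; FRET-FV substrate; RT 20 min; Ex320/Em430; ΔFRET vs ADEP 5.8 microM, DMSO, no enzyme.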
Sfp PPTase inh: blocks B. subtilis Sfp PPTase activity; Q9F4F7; Biochemical Sfp PPTase activity, qHTS; Potency, µM, for inactives: max response, negative = inhibition, actives largely listed as inhibitors; 310,000 compounds, 3.5% hits; active means well fitted inhibition curve with a large enough effect; inconclusive means small, poorly fitted or top-dose-only effect, or another doubt; inactive means no such curve, though single readings can be large or run the other way;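 further: the enzyme is Sfp with the accession as filed and its product quenches rhodamine fluorescence; potency means the concentration at half of the fitted maximal effect; 0% = enzyme reaction without inhibitor and -100% = no enzyme wells; top concentration of the series not given in the record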
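With Hepes-Na pH 7.6 buffer containing 10 mM MgCl2, Sfp (15 nM) modified BHQ-2-YbbR (12.5 uM) using rhodamine-CoA (5 uM). Two reads 30 minutes apart at 525/598 nm yielded each well's rate.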
TRPV1 potentiator: human TRPV1 potentiation; TRPV1-expressing cells, Fluo-8 calcium influx, capsaicin EC20 potentiation; host cell line not named in the record; control for the full effect not named in the record; potentiation, % at 8.33 µM; 320,000 compounds, 0.02% hits; AID 540277; active means potentiation above 80%; inconclusive means 30% to 80%; inactive means below 30%; further: 0% is about no effect
Target sequence (Q8NER1 whole entry, looked up): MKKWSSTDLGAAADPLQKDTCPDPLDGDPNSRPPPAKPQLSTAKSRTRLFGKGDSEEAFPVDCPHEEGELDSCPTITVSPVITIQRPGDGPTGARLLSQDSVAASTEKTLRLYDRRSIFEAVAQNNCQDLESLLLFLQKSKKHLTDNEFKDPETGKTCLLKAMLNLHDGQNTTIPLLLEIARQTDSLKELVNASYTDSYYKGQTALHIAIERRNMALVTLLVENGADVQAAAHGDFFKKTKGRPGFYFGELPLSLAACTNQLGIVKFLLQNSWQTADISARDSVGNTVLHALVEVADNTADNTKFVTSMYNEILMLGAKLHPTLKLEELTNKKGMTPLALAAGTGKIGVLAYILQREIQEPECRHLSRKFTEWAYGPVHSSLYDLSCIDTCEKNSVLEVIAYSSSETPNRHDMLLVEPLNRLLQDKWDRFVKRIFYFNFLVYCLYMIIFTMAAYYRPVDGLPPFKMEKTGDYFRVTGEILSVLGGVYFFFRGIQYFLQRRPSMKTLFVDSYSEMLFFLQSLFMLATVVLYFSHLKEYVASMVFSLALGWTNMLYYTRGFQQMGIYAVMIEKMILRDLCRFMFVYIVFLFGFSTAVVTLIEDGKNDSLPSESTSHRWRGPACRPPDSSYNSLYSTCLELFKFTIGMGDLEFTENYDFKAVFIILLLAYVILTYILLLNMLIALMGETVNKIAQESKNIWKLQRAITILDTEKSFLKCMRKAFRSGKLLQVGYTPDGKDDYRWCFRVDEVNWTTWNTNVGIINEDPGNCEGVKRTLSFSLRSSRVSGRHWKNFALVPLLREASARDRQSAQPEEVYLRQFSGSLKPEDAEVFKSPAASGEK
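Fluo-8 calcium influx in TRPV1-expressing cells, kinetic read (ex 480/em 520 nm). Compound added and read 3 min for agonist activity, followed by capsaicin at EC20 final and 2 min further read for enhancement.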
Menin-MLL FL inh: displaces fluorescein MLL peptide from human menin. Fluorescence polarization, fluorescein-MLL peptide displacement from menin. FP activity change, % at 61.4 µM. 290,000 tested, under 10 active. AID 1766; inconclusive = falling polarisation curve, or a change in total fluorescence; inactive = total fluorescence flat and polarisation flat or rising; no compound was filed as active; the % refers to the polarisation; negative = inhibition;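 further: % of control where 0% means no effect; inhibitors lower the polarisation; unlabelled MLL peptide was the positive control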
Starred values were filed as active, the others as inactive; ? = inconclusive; . = not tested or not shown; & = joins results of further samples; [ ] = another dose, or the depositor's remark.

SMILES	TRPML1 ag	PINK1 expr mod	TRPML1 inh	ClpP mod	Sfp PPTase inh	TRPV1 potentiator	Menin-MLL FL inh
Cc1ccc(N2CC(C(=O)Nc3nnc(C(C)C)s3)CC2=O)cc1 (centres undefined)	-0.4	-6.7%[38.3 µM]	-1	2.7%	7%	6	0.7
CCOc1ccc(N2C(=O)c3ccc(C(=O)OCc4c(C)noc4C)cc3C2=O)cc1	-0.9	8.1%	2	1.4%	-7%	4	2.9
O=C(CSc1ccccc1)Nc1cccc(S(=O)(=O)N2CCOCC2)c1	-0.3	2.6%	3	1.0%	.	-16	.
CC(C)C(=O)Nc1ccc(C(=O)NNC(=S)NC(=O)c2ccco2)cc1	.	1.7%	.	-2.5%	-10%	5	-1.6
CCCN1C(=O)C(NC(=O)c2ccccc2OC)(C(F)(F)F)C(C(=O)OC)=C1C (centres undefined)	-1.1	0.0%	2	-0.1%	.	.	.
CCn1c(CC(=O)Nc2ccccc2OC)nnc1SCC(=O)Nc1ccccc1F	-0.3	-0.8%	3	.	14%	7	-1.3
CCc1ccc(S(=O)(=O)Nc2cccc(C3OCCCO3)c2)cc1	1.1	-0.7%	3	.	7%	7	4.9
COCCn1c(SCC(=O)Nc2cc(C)on2)nc2ccccc21	0.2	1.3%	39	-4.3%	4%	20	0.7
O=Cc1ccc(Oc2cnccn2)cc1	-0.3	0.2%	-15	.	13%	0	-1.8
O=C(CN(CCc1ccccc1)C(=O)CNS(=O)(=O)c1ccccc1)NCc1ccco1	-0.7	-1.2%	-10	0.3%	16%	9	-0.4
CC(=O)c1ccc(NC(=O)C(C)n2nc(-c3ccccc3)c3cc(Cl)ccc32)cc1 (centres undefined)	0.1	21%	1	-13%	1%	9	16
CCOC(=O)N1CCC(NC(=O)CC(NS(=O)(=O)c2ccc(Cl)cc2)c2ccco2)CC1 (centres undefined)	-0.5	-4.8%	7	32µM*	12%	-25	0.6
O=C(O)c1ccccc1Nc1cccc(OCc2ccc3ccccc3n2)c1	1.2	0.2%	-5	0.7%	?	3	3.1&40
O=C(NC1(C(=O)NC2CCCCC2)CCCCC1)c1ccccn1	0.4	-0.6%	-17	-0.9%	14%	-2	3.5
CC(C)n1ncc2c(C(=O)NCC(=O)Nc3ccccc3Br)cc(C3CC3)nc21	1.0	0.1%	12	3.2%	.	14	.
CC1CCCC(CC(N)=O)CC1 (centres undefined)	0.6	-0.5%	-2	-1.0%	.	.	.
COC(=O)c1cc(NC(=O)C2COc3ccccc3O2)ccc1Cl (centres undefined)	1.8	1.8%[38.3 µM]	14	0.0%	-3%	-11	2.1
O=C1C=CC(=O)N1Cc1ccncc1	1.0	2.6%	-16	-4.9%	.	.	.
COc1ccc(OC)c(NC(=O)C2CCC(CNc3c(N4CCC(C)CC4)c(=O)c3=O)CC2)c1 (centres undefined)	0.3	4.3%	-9	-0.1%	-22%	-1	2.5
Cc1cccnc1NC(=O)CNC(=O)C12CC3CC(CC(Cl)(C3)C1)C2	0.1	-0.9%	3	-11%	.	-6	.
COCCn1nnnc1C(c1ccc(OC)cc1OC)N1CCN(c2ccccc2F)CC1 (centres undefined)	0.1	-2.5%	5	1.4%	10%	7	3.3
CCCCOCCCNC(=O)N[C@H](C(=O)OC)C(C)C	-0.1	2.5%	-7	-3.4%	14%	-11	1.3
Cn1c(=O)c2c(nc(SC3C(=O)CC(C)(C)CC3=O)n2C)n(C)c1=O	0.0	.	-6	-0.3%	56µM*	18	2.7
Cc1cc(C)c(C(=O)COC(=O)CCn2c(C)csc2=O)cc1C	0.7	0.5%	-6	0.7%	.	-4	.
COc1ccc(-c2nnc(SCC(=O)c3[nH]c(C)c(C(C)=O)c3C)o2)cc1	-0.6	3.8%	-5	-0.4%	3%	-2	6.9
COc1ccc(OC)c(/C=C/c2sc3ccccc3[n+]2C)c1	-1.2	4.6%	.	1.1%	.	.	.
CC(c1ccccc1)C1CC(=O)N(C2CCCCC2)C1=O (centres undefined)	0.4	.	10	-0.4%	18%	-3	0.5
CCOc1ccc2[nH]c(C)cc(=O)c2c1	-0.1	0.3%	-11	4.1%	-10%	-15	2.1
C=CCOc1ccc(-c2nc3c(c(=O)[nH]c(=O)n3Cc3ccccc3)n2CCCOC)cc1	2.0	6.3%	-7	.	10%	-12	-1.6
Cc1cc(=O)oc2cc(OCC(=O)Nc3nnc(C(C)C)s3)ccc12	1.1	2.0%	8	?	-3%	10	2.7
CC(=O)c1ccc(S(=O)(=O)NC2CC(=O)N(c3ccc(C)c(C)c3)C2)cc1 (centres undefined)	0.9	-0.8%	-3	.	.	-19	.
O=S(=O)(Nc1ccc(Br)cc1F)c1ccc2nc(-c3ccccc3)[nH]c2c1	0.0	7.4%	-27	-0.5%	.	.	.
C=C1CCN(C(CC(C)C)C(=O)O)S(=O)(=O)c2ccccc21 (centres undefined)	0.9	.	-8	.	14%	.	0.7
CCOC(=O)c1[nH]c2cc(OC)c(OC)cc2c1NC(=O)c1nonc1C	0.0	3.8%	5	0.3%	4%	20	0.7
C=CCN1C2=NCCCN2c2ccccc21	.	1.3%	.	0.6%	11%	-9	-1.3
COc1ccc(-c2cn(Cc3ccc([N+](=O)[O-])cc3)nn2)cc1	-0.6&-0.2	1.1%	0	1.5%&-2.0%	-3%	-12	-2.2
CCOC(=O)/C(=C\c1cn(C)c2ccccc12)[N+](=O)[O-]	0.6	-0.8%	6	0.9%	4%	-17	8.3
O=C(COC(=O)c1ccc(Br)o1)NCc1ccccc1Cl	1.2	0.0%	-11	-0.1%	.	.	.
NS(=O)(=O)c1cccc(NC(=O)COC(=O)CSCc2ccccc2)c1	1.3	-1.2%	-20	4.2%	.	.	.
Cc1ccccc1S(=O)(=O)Nc1nc2ccccc2nc1Cl	0.0	3.8%	10	.	6%	-7	-2.1

Part of the list above, with values under each structure:
Values in the order: TRPML1 ag | PINK1 expr mod | TRPML1 inh | ClpP mod | Sfp PPTase inh | TRPV1 potentiator | Menin-MLL FL inh
C=CCN1C2=NCCCN2c2ccccc21
    . | 1.3% | . | 0.6% | 11% | -9 | -1.3
COc1ccc(-c2cn(Cc3ccc([N+](=O)[O-])cc3)nn2)cc1
    -0.6&-0.2 | 1.1% | 0 | 1.5%&-2.0% | -3% | -12 | -2.2

Additional records:
SMILES	TRPML1 ag	PINK1 expr mod	TRPML1 inh	ClpP mod	Sfp PPTase inh	TRPV1 potentiator	Menin-MLL FL inh
CCOc1cc(NC(=O)C2CC2)c(OCC)cc1NC(=O)c1ccccn1	2.1	11%	16	0.4%	-4%	-17	5.1
O=C(CN(Cc1cccs1)C(=O)CNS(=O)(=O)c1ccc(F)cc1)NCC1CCCO1 (centres undefined)	-0.7	-1.1%	0	.	28%	4	-3.3
O=S(=O)(Nc1cc(Cl)ccc1-n1cncn1)c1cc(Br)ccc1Br	0.2	16µM*	17	-1.3%	.	-9	.
O=C(c1cccs1)c1cn(CCOc2ccccc2F)c2ccccc12	1.0	0.4%	-2	-17%	.	.	.
COc1ccc(NC(=O)C(Sc2nnc3ccccn23)c2ccccc2)cc1Cl (centres undefined)	1.1	0.2%	36	-1.6%	-11%	-23	1.0
Cc1c(C(=O)NC(C)CN2CCCCC2)oc2ccccc12 (centres undefined)	0.9	0.0%[38.3 µM]	1	-5.2%	13%	-6	1.6
S=C(NCc1cccs1)Nc1cc(Cl)cc(Cl)c1	-0.7	?	-16	.	11%	-4	-0.4
O=C(c1ccc(OC2CCN(CCc3ccccc3)CC2)cc1)N1CCC[C@H]1CO	0.0	0.0%	-14	0.1%	2%	2	-2.1
COC(=O)c1c(C)[nH]c(C)c1-c1ccccc1	-1.3	-1.4%	27	-1.6%	24%	8	0.2
C[C@@H]1CN([C@H](C)CO)C(=O)CCCn2cc(nn2)CO[C@H]1CN(C)S(=O)(=O)c1ccc(Oc2ccccc2)nc1	1.0	2.2%	-18	-3.8%	.	.	.
C[C@H](NC(=O)[C@H]1N2C(=O)c3ccccc3C2SC1(C)C)C(=O)NCC1CCCO1 (some centres undefined)	-1.3	-0.7%	1	-0.4%	2%	0	.
COc1ccccc1N1CCN(C(=O)c2c3c(nc4ccccc24)C(=O)N(C2CCCCC2)C3)CC1	0.1	2.8%	26	-0.3%	.	.	.
Cc1[nH]nc2c1C(Cc1ccccc1)C(C#N)=C(N)O2 (centres undefined)	1.2	0.5%	-5	-3.6%	0%	12	4.2
CN(CCN(C)C(C)(C)C)C(=O)C(c1ccccc1)c1ccccc1	-0.8	-0.9%	-5	0.6%	-29%	4	2.0
CCOc1ccc(CN2CCC(=O)NC2=O)cc1	-0.1	0.6%	17	-0.7%	26%	23	0.4
CN(C)CCCNCC(=O)Nc1ccccc1N1CCOCC1	-0.4	1.5%	-21	-2.9%	79µM*	26	-0.7
CC1CCN(S(=O)(=O)c2cc(C(=O)NCc3ccccc3)n(C)c2)CC1	0.0	-1.3%	-5	1.5%	.	.	.
CC[C@@H]1C=C(C(=O)O)[C@H](c2ccc(F)cc2)N1S(=O)(=O)c1ccc(C)cc1	0.0	-0.6%	2	-3.2%	.	.	.
CCCCN(CC)S(=O)(=O)c1ccc(C(=O)Nc2nnc(-c3ccccc3Cl)o2)cc1	.	.	.	.	10%	19	-0.6
c1coc(Cn2nnnc2CN2CCN(C3CCCCC3)CC2)c1	1.0	0.4%	13	0.1%	10%	1	1.8
O=C(NCc1ccccn1)Nc1ccccc1F	-0.4	0.0%	-7	0.1%	1%	-2	-1.3
O=C(NCCN1C(=O)S/C(=C\c2ccc(F)cc2)C1=O)c1cccc(S(=O)(=O)N2CCOCC2)c1	-0.1	0.7%	-18	0.5%	2%	6	7.5
CCc1nnc(SCC(=O)N2CCCc3ccccc32)nc1CC	3.6	-1.1%	-14	-1.7%	14%	-21	1.1
FC(F)(F)c1nc(-c2cccnc2)ncc1-c1nnnn1-c1ccccc1	0.2	-3.0%	-11	-3.0%	12%	-4	-1.6
O=C(c1ccc([N+](=O)[O-])cc1)N1CCc2ccccc21	-0.8	2.3%	41	0.4%	.	.	.
